miR-21 reporter: qHTS Assay for Modulators of miRNAs and/orActivators of miR-21. Potency, µM (titrated, usually from 38.3 µM), for the others: at the highest dose reporter change, positive = more light. 340,000 tested, under 10 active. HeLa miR-21 FLuc reporter, luciferase, 48 h; active = well fitted rising curve with a large enough effect; inconclusive = small, poorly fitted or top-dose-only effect; inactive = no such curve, though single readings can be large or run the other way;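 further: % of control where 0% means no effect; miR-21 action dims this reporter so a rising signal means less miR-21 action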
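Luminescence from a firefly luciferase reporter carrying a miR-21 binding site downstream, stably expressed under a CMV promoter in HeLa cells that make miR-21 endogenously, reports miRNA modulation after 48 h compound exposure up to approximately 40uM final.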
Rango dissoc inh: qHTS Assay for Inhibitors of RanGTP induced Rango (Ran-regulated importin-beta cargo) - Importin beta complex dissociation | Snurportin-1 (Homo sapiens) + GTP-binding nuclear protein Ran (Homo sapiens) + Importin … | Biochemical FRET Rango-importin beta, RanGTP-induced dissociation | Potency, µM (titrated, usually from 46.1 µM), without a hit: at the top dose activity change, negative = inhibition | actives 0.071% (n = 340,000); active means falling FRET ratio curve, often poorly fitted, with flat reads before Ran was added; inconclusive means other falling curves, or compound fluorescence or quenching; inactive means flat or rising ratio curve;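 further: potency means the concentration at half of the fitted maximal effect; % of control where 0% means no effect; nearly all actives have a fitted effect of over 45% in size; -100% = wells without RanGTP and RCC1; the record marks most hits as doubtful in a second field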
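Quantitative HTS using a FRET biosensor: 0.1 uM Rango, 0.25 uM importin beta, 0.6 uM Ran, 2 mM GTP, 0.2 uM RCC1 final, PBS with DTT, Tween-20 and BSA. Post-read taken 45 min after Ran addition.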
Rango-impB inh: qHTS Assay for Inhibitors of Rango (Ran-regulated importin-beta cargo) - Importin beta complex formation | Importin subunit beta-1 (Homo sapiens), Q14974 | actives 0.031% (n = 340,000) | Rango CFP/YFP FRET sensor + importin beta, 45 min | Potency, µM (series often up to 92.2 µM), for inactives: at the highest dose inhibition of complex formation; active = rising FRET ratio curve, often small or poorly fitted; inconclusive = mostly compound fluorescence or quenching in the first reads; inactive = flat curves in all reads;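 further: potency means the concentration at half of the fitted maximal effect; 0% = DMSO wells and 100% = buffer wells lacking importin beta; nearly all actives have a fitted effect of over 15% in size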
Target sequence (Q14974 whole entry, looked up): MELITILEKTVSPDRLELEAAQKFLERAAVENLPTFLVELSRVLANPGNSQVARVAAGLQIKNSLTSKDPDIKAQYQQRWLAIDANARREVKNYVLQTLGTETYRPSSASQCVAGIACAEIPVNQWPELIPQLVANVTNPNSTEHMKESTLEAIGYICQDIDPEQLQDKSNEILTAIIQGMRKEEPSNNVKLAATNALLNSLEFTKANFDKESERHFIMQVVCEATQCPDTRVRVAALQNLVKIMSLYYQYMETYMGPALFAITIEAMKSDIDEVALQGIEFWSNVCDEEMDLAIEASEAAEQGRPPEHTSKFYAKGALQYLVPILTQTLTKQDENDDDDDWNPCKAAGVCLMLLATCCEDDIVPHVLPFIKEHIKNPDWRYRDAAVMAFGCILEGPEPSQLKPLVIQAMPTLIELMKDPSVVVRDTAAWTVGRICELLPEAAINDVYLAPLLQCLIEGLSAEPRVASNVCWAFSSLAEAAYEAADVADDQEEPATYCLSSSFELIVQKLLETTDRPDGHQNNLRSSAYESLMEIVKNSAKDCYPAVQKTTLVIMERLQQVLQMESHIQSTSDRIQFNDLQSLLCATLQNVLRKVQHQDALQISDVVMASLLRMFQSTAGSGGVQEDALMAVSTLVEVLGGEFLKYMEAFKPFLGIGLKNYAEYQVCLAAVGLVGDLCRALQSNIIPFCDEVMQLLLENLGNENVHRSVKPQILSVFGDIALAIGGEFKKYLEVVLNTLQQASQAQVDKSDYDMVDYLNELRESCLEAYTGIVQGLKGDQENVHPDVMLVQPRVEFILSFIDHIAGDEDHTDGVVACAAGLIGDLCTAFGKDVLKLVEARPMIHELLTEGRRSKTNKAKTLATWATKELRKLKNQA
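FRET biosensor Rango (snurportin 1 IBB between N-terminal EYFP and C-terminal Cerulean), 50 nM in PBS/1 mM DTT/0.02% Tween-20/0.1% BSA, preincubated 5 min RT with compound; 0.125 microM importin beta added, 45 min RT, CFP/YFP FRET ratio read.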
GLA inh pH 4.5: qHTS Assay for Inhibitors of Human alpha-Galactosidase at pH 4.5; Alpha-galactosidase A (Homo sapiens), P06280; purified enzyme, 4-MU-alpha-Gal fluorescence, pH 4.5; activity change, negative = inhibition, % at 105 µM; 230,000 tested, under 10 active; inconclusive = small, poorly fitted or top-dose-only inhibition, or a rising curve; inactive = flat fitted curve, though single readings scatter; no compound was filed as active;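 further: 0% = full activity with enzyme and -100% = basal without enzyme; dose as in the result columns while the protocol names 77 µM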
* = called active by the depositor; ? = inconclusive; . = not tested or not shown; [ ] = dose if it differs, or a comment.

# | canonical_smiles | miR-21 reporter | Rango dissoc inh
1 | O=C(O)c1oc2ccc(Br)cc2c1-n1cccc1 | -8% | ?
2 | COc1ccc(NC(=O)C2CCN(S(=O)(=O)c3ccc4[nH]c(=O)oc4c3)CC2)c(OC)c1 | -2% | 10%
3 | CCOC(=O)Cc1csc(N/C(=N/S(=O)(=O)c2cc(Br)ccc2OCC)c2ccccc2)n1 | -5% | -10%
4 | CCc1ccccc1NC(=O)c1cc(S(=O)(=O)N2CCCC2)c[nH]1 | -2% | -1%
5 | CC(C)CC1NC(=O)C(CC(C)C)N(CO)C1=O (stereo not given) | . | -16%
6 | O=C(Nc1nc2c(s1)CCCC2)C1COc2ccccc2O1 (stereo not given) | 5% | -12%
7 | CC(C)NC(=O)CNc1ccc(C(F)(F)F)cc1[N+](=O)[O-] | 2% | -6%
8 | COC(=O)c1ccccc1NC(=O)Nc1ccc(Cl)cn1 | -30% | 7%
9 | Cc1sc2nc(SCC(N)=O)n(-c3ccccc3)c(=O)c2c1C | -5% | 9%
10 | Cc1c(Cl)c([N+](=O)[O-])nn1CC(=O)NCC(C)C | -1% | 1%
11 | COc1ccc(-n2cnnc2SCC(=O)Nc2cccc(S(N)(=O)=O)c2)cc1 | -1% | -8%
12 | CCOC(=O)C(NC(=O)N(C)C)(Nc1sc(C)c(CC)c1C#N)C(F)(F)F (stereo not given) | -8% | 1%
13 | O=C(O)C1CC=CCC1C(=O)Nc1cccc(C(=O)N2CCCCC2)c1 (stereo not given) | -6% | 12%
14 | CC1Cc2ccccc2N1Cc1cccc(S(=O)(=O)N(C)C)c1 (stereo not given) | 1% | 9%
15 | CCOC(=O)c1ccc(NC(=O)CCC(=O)NCc2ccco2)cc1 | -8% | -6%

# | Rango-impB inh | GLA inh pH 4.5
1 | 0.4% | -11
2 | -3.5% | .
3 | -2.0% | -3
4 | -0.2% | .
5 | 1.4% | .
6 | -1.6% | 0
7 | -0.9% | -6
8 | 0.4% | 2
9 | -0.1% | -4[21.1 µM]
10 | 1.3% | -17
11 | 4.1% | .
12 | -1.3% | 5
13 | -0.1% | -1
14 | -4.7% | .
15 | 0.0% | .

(next part)
# | canonical_smiles | miR-21 reporter | Rango dissoc inh
16 | COc1ccc(CN(C)C(=O)CCc2ccc(S(=O)(=O)N3CCCCCC3)cc2)c(OC)c1 | . | 0%
17 | CCOC(=O)c1ccc(Nc2nc(C)cc(C)c2C#N)cc1 | 0% | -21%
18 | CC(C)(C)N1CC23C=CC(C[C@@H]2C1=O)O3 (stereo not given in full) | . | 17%
19 | Cc1ccc(S(=O)(=O)N2CCOCC2)cc1NC(=O)COC(=O)c1ccc(Cl)nc1 | . | 1%
20 | COC(=O)c1sc2ncn(CC(=O)NCCc3ccc(OC)c(OC)c3)c(=O)c2c1C | -2% | -28%
21 | CCCn1c(=O)c2ccccc2n2c(SCc3nnc(-c4ccccc4Br)o3)nnc12 | -1% | 13%
22 | O=S(=O)(Nc1nc2ccccc2nc1Cl)c1ccccc1C(F)(F)F | 1% | -2%
23 | CC1CN=C(NC(=O)c2cccc([N+](=O)[O-])c2)S1 (stereo not given) | -50% | 6%
24 | COc1cccc(N2CCN(c3ccc(S(=O)(=O)N4CCCC4)cc3)CC2)c1 | -2% | 0%
25 | Cn1cc(Br)c(C(=O)NNC(=O)c2ccccc2)n1 | -28% | -3%
26 | Cc1ccccc1NC(=O)C(=O)NCCc1ccccc1 | -20% | 12%
27 | O=C(Nc1ccc(N2C(=O)c3cccc4cccc(c34)C2=O)cc1)c1ccc(N2CCCCC2)c([N+](=O)[O-])c1 | -6% | 6%
28 | Cc1cccc(NC(=O)CSc2nnc3ccc(-c4ccccn4)nn23)c1 | . | 0%
29 | O=C(/C=C/c1cccc([N+](=O)[O-])c1)NCCN1C(=O)S/C(=C\c2ccc(F)cc2)C1=O | -2% | 37%
30 | O=S(=O)(CCN1CCOCC1)c1ccc(Cl)cc1 | . | 6%

# | Rango-impB inh | GLA inh pH 4.5
16 | 1.0% | .
17 | 1.7% | 1
18 | -1.1% | .
19 | -0.4% | .
20 | 0.9% | ?
21 | 5.1% | -8
22 | 2.9% | .
23 | 1.2% | .
24 | -0.9% | 3
25 | -0.1% | 1
26 | 11% | 4
27 | 1.2% | 0
28 | ? | .
29 | 4.8% | 4
30 | 1.0% | .

Retrieved by compound from the entries so far, 4 records:
# | canonical_smiles | miR-21 reporter | Rango dissoc inh
16 | COc1ccc(CN(C)C(=O)CCc2ccc(S(=O)(=O)N3CCCCCC3)cc2)c(OC)c1 | . | 0%
23 | CC1CN=C(NC(=O)c2cccc([N+](=O)[O-])c2)S1 (stereo not given) | -50% | 6%
30 | O=S(=O)(CCN1CCOCC1)c1ccc(Cl)cc1 | . | 6%
18 | CC(C)(C)N1CC23C=CC(C[C@@H]2C1=O)O3 (stereo not given in full) | . | 17%

# | Rango-impB inh | GLA inh pH 4.5
16 | 1.0% | .
23 | 1.2% | .
30 | 1.0% | .
18 | -1.1% | .

Copied from the list:
Cc1ccc(S(=O)(=O)N2CCOCC2)cc1NC(=O)COC(=O)c1ccc(Cl)nc1 – Rango dissoc inh: 1%
COc1ccc(-n2cnnc2SCC(=O)Nc2cccc(S(N)(=O)=O)c2)cc1 – Rango dissoc inh: -8%
O=C(Nc1nc2c(s1)CCCC2)C1COc2ccccc2O1 (stereo not given) – miR-21 reporter: 5%
CC1CN=C(NC(=O)c2cccc([N+](=O)[O-])c2)S1 (stereo not given) – Rango dissoc inh: 6%

New compounds follow.
# | canonical_smiles | miR-21 reporter | Rango dissoc inh
31 | COc1ccc(NC2CCCN(C(=O)c3ccc(OC)cc3OC)C2)cc1 (stereo not given) | -1% | 4%
32 | Cc1cc2nc(C)n(CCCNC(=O)Nc3ccc(F)cc3)c2cc1C | 21% | -10%
33 | COCCNC(=S)N/N=C(\C)c1cccc([N+](=O)[O-])c1 | -16% | 9%
34 | O=C(Cc1ccc(S(=O)(=O)N2CCOCC2)s1)N1CCN(c2ccc(C(F)(F)F)cc2[N+](=O)[O-])CC1 | . | 1%
35 | CCOC(=O)C1=C(C)N(C)C(=S)NC1c1cccc(Cl)c1Cl (stereo not given) | -1% | -3%
36 | Cc1ccc(/C=N/NC(=O)c2nnn(-c3nonc3N)c2CN(C)C2CCCCC2)cc1 | -3% | 0%
37 | Cc1c(NC(=O)COC(=O)Cc2ccc(Br)cc2)c(=O)n(-c2ccccc2)n1C | . | -7%
38 | CCOCCn1c(N2CCN(c3ccccc3)CC2)nc2c1c(=O)n(C)c(=O)n2C | -1% | 13%
39 | COc1cccc(-c2cc(C(F)(F)F)nc(-n3ccc([N+](=O)[O-])n3)n2)c1 | 0% | -11%
40 | O=C(NC(=S)Nc1ccc(-c2nc3ncccc3o2)cc1)c1ccccc1F | -16% | 8%
41 | O=C1CN(C(=O)COC(=O)CNC(=O)c2ccc(Cl)cc2)c2ccccc2N1 | 3% | 7%
42 | Cc1ccc(S(=O)(=O)N2CCN(C(=O)c3ccccc3OCc3c(C)noc3C)CC2)cc1 | . | 11%
43 | CCOC(=O)NC(N(O)c1cccc(Cl)c1)C(Cl)(Cl)Cl (stereo not given) | 4% | 0%
44 | COc1ccccc1OCCNC(=O)c1cc(F)c(F)cc1Cl | -26% | 62%
45 | COc1ccc(C(=O)Nc2c(Cl)cc(Cl)cc2C(=O)NCc2ccco2)cc1 | 1% | 0%

# | Rango-impB inh | GLA inh pH 4.5
31 | 0.9% | .
32 | -2.6% | 3
33 | 0.5% | 8
34 | -0.3% | .
35 | 0.6% | 6
36 | 1.3% | .
37 | 0.9% | .
38 | ? | 0
39 | -5.2% | -3[21.1 µM]
40 | -4.5% | 8
41 | 1.5% | 5
42 | 1.7% | .
43 | -0.7% | -4
44 | 0.6% | 1
45 | 0.1% | 9

Remaining list, next part:
# | canonical_smiles | miR-21 reporter | Rango dissoc inh
46 | CC(C1CC2CCC1C2)n1c(-c2cccs2)n[nH]c1=S (stereo not given) | 6% | 0%
47 | O=C(CSc1n[nH]c(-c2ccncc2)n1)Nc1ccccc1 | 1% | -13%
48 | CCOC(=O)c1cc(C)sc1NC(=O)CCC(=O)O | -4% | -1%
49 | O=C(NC1(Cc2ccc(O)cc2)CCCCC1)c1ccccc1 | 7% | 12%
50 | Cc1cc2c(cc(C(=O)OC(C(=O)NCC3CCCO3)C(C)C)n2C)o1 (stereo not given) | 0% | 11%
51 | COc1cccc2cc(C(=O)Nc3cccc(C)n3)c(=O)oc12 | -45% | 18%
52 | CCCCn1c(=O)[nH]c2ccccc21 | -6% | -7%
53 | O=[N+]([O-])c1ccc(Nc2c3ccccc3nc3ccccc23)cc1 | ? | ?
54 | CC(C)COC(=O)Nc1nnc(SCc2ccccc2F)s1 | -11% | 1%
55 | COC1C(CO)OC(n2c3c(Cl)cccc3c3c4c(c5c6cccc(Cl)c6[nH]c5c32)C(=O)NC4=O)C(O)C1O (stereo not given) | . | ?
56 | S=c1nc(-c2ccccc2)n(CCN2CCOCC2)c2c1CCCC2 | -4% | -6%
57 | COc1ccc(NC(=O)COc2ccc3c(c2)OCO3)cc1 | -37% | -2%
58 | CN(C)C(=O)CCC(=O)N1CCCC(N2CCN(c3cccc(C(F)(F)F)c3)CC2)C1 (stereo not given) | 0% | 0%
59 | CC1CCOC2(O1)C(=O)N(CN1CCN(c3cccc(Cl)c3)CC1)c1ccccc12 (stereo not given) | -2% | 3%
60 | Cc1cccc(NC(=O)C2CCN(S(=O)(=O)c3ccc4c(c3)OCCO4)CC2)n1 | . | 19%

# | Rango-impB inh | GLA inh pH 4.5
46 | -0.2% | 10
47 | ? | .
48 | -0.2% | -1
49 | -0.5% | .
50 | 9.1% | 8
51 | -0.6% | 2
52 | -0.1% | -6
53 | ? | -21
54 | -3.2% | 5
55 | ? | .
56 | -6.9% | 7
57 | 3.4% | .
58 | 5.0% | .
59 | 2.9% | 2
60 | 2.4% | .

Remaining list, next part.
# | canonical_smiles | miR-21 reporter | Rango dissoc inh
61 | COc1cc(C(=O)Nc2ccc(C)cn2)ccc1OCC(=O)N1CCOCC1 | . | 2%
62 | CSC(=NC#N)N1CCN(c2c(C)cccc2C)CC1 | -3% | 19%
63 | CC(=O)Nc1ccc(SC[C@H](C)CN2CC[C@H](C(C)(C)C)CCC2=O)cc1 | . | -17%
64 | CN1CCN(C(=O)c2ccccc2NC(=O)c2cccs2)CC1 | -6% | 1%
65 | CCn1nc(NS(=O)(=O)c2cccc3nonc23)c2cc3ccc(C)cc3nc21 | -3% | -5%
66 | COc1ccc(CNC(=O)CN2C(=O)CSc3ccc(S(=O)(=O)N4CCOCC4)cc32)cc1 | 0% | 8%
67 | CC(C)CNS(=O)(=O)c1ccc(CCC(=O)O)cc1 | 0% | 2%
68 | NS(=O)(=O)c1ccc(NC(=O)Nc2ccc(C(F)(F)F)cc2)cc1 | 4% | 0%
69 | Cc1c(CCC(=O)N[C@@H](CC(C)C)C(=O)O)c(=O)oc2c(C)c3oc4c(c3cc12)CCCC4 | 4% | 0%
70 | COc1cc(C(=O)O)ccc1O | -5% | 0%
71 | Cc1ccc(-n2c(CSc3nc(C)cc(C)n3)nnc2SCC(=O)NCc2ccco2)cc1 | -4% | 14%
72 | O=C(Cc1ccc(Cl)cc1)N/N=C/c1c(Cl)cccc1Cl | -11% | -4%
73 | O=C(c1cccc(C(F)(F)F)c1)C1CCCN(C(=O)c2cc(C3CC3)[nH]n2)C1 (stereo not given) | 7% | 14%

# | Rango-impB inh | GLA inh pH 4.5
61 | 1.4% | .
62 | 5.8% | -1
63 | -1.2% | .
64 | 7.3% | 10
65 | 3.0% | .
66 | 2.2% | .
67 | -0.1% | 0
68 | -2.1% | -16
69 | 1.2% | .
70 | 4.6% | -5
71 | ? | -4
72 | -0.4% | 1
73 | ? | .

Compound activity: PubChem BioAssay, National Center for Advancing Translational Sciences (NCATS)

An excerpt; count on the stated rates, not on these rows.
